E coli growth = E. coli growth inhibition | hit rate 0.21% among 330,000 | OD600 absorbance (test concentration not listed) | Escherichia coli growth, OD600, 23 h; hits give low values | AID 1053175;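 active means OD600 absorbance below the run mean of sample wells minus 3.6 SD, in any replicate, cut at about 0.56 in these data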;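 further: stock transfer was 300 nL into about 60 µL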
UCH37 inh = blocks the human deubiquitinase UCH37; Q9Y5K5; purified proteasome/UCH37, Ub-AMC cleavage fluorescence; inhibition, % (no concentration beside the values); hit rate 0.33% among 330,000;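 active means mean of two replicates above 20%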;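 further: 0% = compound-free wells with enzyme and 100% = wells lacking proteasome; stock transfer was 100 nL into about 20 µL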
Target sequence (Q9Y5K5 whole entry, looked up): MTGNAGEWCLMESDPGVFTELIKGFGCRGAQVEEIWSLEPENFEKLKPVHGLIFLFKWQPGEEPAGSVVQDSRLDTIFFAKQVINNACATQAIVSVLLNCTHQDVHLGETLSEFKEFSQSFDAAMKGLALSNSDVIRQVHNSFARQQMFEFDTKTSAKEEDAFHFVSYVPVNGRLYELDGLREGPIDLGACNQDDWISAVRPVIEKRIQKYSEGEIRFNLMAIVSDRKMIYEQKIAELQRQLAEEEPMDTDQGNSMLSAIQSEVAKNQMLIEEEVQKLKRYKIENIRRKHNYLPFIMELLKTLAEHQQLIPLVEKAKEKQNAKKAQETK
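Test system – human UCH37 enzyme supplied as purified proteasome complex · Incubation – 30 min preincubation with enzyme, 25 min cleavage at room temperature · Detection – AMC fluorescence from Ub-AMC cleavage, excitation 355 nm, emission 460 nm · Benchmarks – no-proteasome wells (full inhibition) and compound-free wells (no inhibition)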
An asterisk follows results filed as active. An excerpt (hit frequency here may not be typical).

compound	E coli growth	UCH37 inh
O=C(NN=Cc1ccc(OCC(=O)N2CCCC2)cc1)C(=O)NC1CC1	0.713	4.9
O=C(NN=Cc1ccncc1)/C(=C/c1ccccc1)NC(=O)c1ccccc1	0.728	5.4
O=C(NN=Cc1c[nH]c2ccccc12)c1cccc(Cl)c1	0.622	-1.1
COc1cc(C=NNc2ccccc2)ccc1O	0.689	-0.8
COCCNC(=S)NN=C(C)c1ccc2cc(OC)ccc2c1	0.699	-1.6
Cc1ccc(C(=O)ON=Cc2ccc3c(c2)OCO3)cc1	0.672	3.5
COc1ccc2ccccc2c1C=NNC(=O)c1ccc(C)s1	0.667	-7.5
CN(C)c1ccc(P(=O)(CC(=O)NN=Cc2ccc(C#N)cc2)OCCCl)cc1 (stereo not drawn)	0.634	1.0
CCC(=NO)c1ccc(O)c(OC)c1	0.704	1.3
CC(=NNc1cccc2cccnc12)c1ccccc1O	0.696	6.2
CC(=NOC(=O)c1ccc(C)cc1)c1cccs1	0.758	3.2
O=C(NN=Cc1ccccc1[N+](=O)[O-])c1cccs1	0.678	1.7
COc1cc(C=Nn2cnnc2)ccc1OCC(=O)N1CCOCC1	0.656	-0.5
O=C(NN=Cc1ccc(F)cc1)c1cccc(NC(=O)c2ccc(F)cc2)c1	0.665	-9.4
COc1ccccc1NS(=O)(=O)c1cccc(C(=O)NN=Cc2c(CO)cnc(C)c2O)c1	0.661	-62.7
CCCCCCOc1ccc(C=c2sc(=C(C#N)C(=O)NCc3ccco3)n(-c3ccccc3)c2=O)cc1	0.701	-18.5
COC(=O)NN=C(C)c1cccc(C(F)(F)F)c1	0.678	-1.0
COc1ccccc1N(CC(=O)NN=C(C)c1cccc(Br)c1)S(C)(=O)=O	0.733	-2.0
CCCC(=NNC(=O)C1CCCC1)c1ccccc1	0.745	4.7
CN(C)S(=O)(=O)c1cccc(NC(=S)NN=CC(c2ccccc2)c2ccccc2)c1	0.672	2.0
CC1=NOC2(C1)C(=NO)CCCC2=NO (stereo not drawn)	0.686	4.3
O=C(NN=Cc1ccccc1C(=O)O)c1cccc(S(=O)(=O)N2CCOCC2)c1	0.654	1.5
Cn1c(SCC(=O)NN=Cc2ccc([N+](=O)[O-])s2)nnc1-c1ccccc1	0.657	10.5
CNC(=S)NN=CC1=CCC2CC1C2(C)C (stereo not drawn)	0.66	5.6
CC1CCCCC1=NNS(=O)(=O)c1ccc(Br)cc1 (stereo not drawn)	0.713	1.8
O=[N+]([O-])c1cccc(C=NNc2ncc(Br)cn2)c1	0.704	5.7
CC1(C)CC(=O)CC(=NNC(=O)CCCOc2ccc(Cl)cc2Cl)C1	0.718	3.9
Cc1cc(NN=Cc2ccc(Cl)cc2)nc(NCc2ccccc2)n1	0.604	5.8
CC(CCC(C)C)=NNc1cc(C)c2ccccc2n1	0.662	-5.7
CC(/C=C/c1ccccc1)=NNc1nc(C)cc(C)n1	0.667	12.9
Cc1ccc(C=NNC(=O)c2nnn(-c3nonc3N)c2C(C)C)o1	0.726	5.8
CCOC(=O)C(=NO)C1=NC(C)(C)Cc2cc(C)c(C)cc21	0.694	2.1
Cc1cc(NN=Cc2cccc([N+](=O)[O-])c2)nc(-n2nc(C)cc2C)n1	0.656	6.8
ON=Cc1ccccc1OCc1ccccc1Cl	0.691	4.1
COc1cccc(C(=O)NN=c2sc3ccccc3n2C)c1	0.66	3.7
O=C(CNc1cccc2ccccc12)NN=Cc1ccccn1	0.607	-1.2
Cc1ccc(Cl)cc1-c1ccc(C=Nn2cnnc2)o1	0.691	-73.5
CNC(=O)N(O)C1N(N=Cc2ccccc2OC)C(=S)SC1(C)C (stereo not drawn)	0.647	9.7
COC(=O)c1scc(C#N)c1NN=C(C#N)S(=O)(=O)c1ccc(Cl)cc1	0.689	4.9
Cc1nnc(C)n1N=Cc1ccccn1	0.719	-0.3
CC(=NNC(=O)C1CC1)c1ccc2c(c1)OCCO2	0.701	-1.3
Cc1cccc(C)c1NC(=S)NN=Cc1ccc(C(=O)O)cc1	0.68	8.3
Cc1nn(-c2ccc(F)cc2)c(Cl)c1C=NNC(=O)c1cccc(S(=O)(=O)N2CCCC2)c1	0.672	5.1
O=C(NN=Cc1cccc(F)c1)c1c(O)c2ccccc2[nH]c1=O	0.667	0.7
CC(=NNC(=O)c1ccc(Br)o1)c1cccc(NC(=O)c2ccc(C)o2)c1	0.637	5.4
COc1ccc(CNC(=O)CC(C)=NNC(=O)COc2ccc(Br)cc2)cc1	0.701	5.0
O=C(NN=Cc1cccc(NC(=O)c2ccc(Cl)cc2)c1)c1ccc(O)cc1	0.68	3.3
O=C(CN1CCN(Cc2ccccc2Cl)CC1)NN=Cc1cccs1	0.64	6.7
COc1cc(C=NNC(=O)c2ccncc2)ccc1OCc1cnc(Cl)s1	0.637	0.7
Cc1ccc(C=NNc2nc(Cl)c(Cl)cc2Cl)s1	0.731	-1.0
CCN(CC)c1ccc(C=NN2CCN(Cc3ccc(Cl)cc3)CC2)c(O)c1	0.686	10.2
COC(=O)c1[nH]c2cc(OC)ccc2c1NC(=O)CN1CCOCC1	0.64	-5.2
C=C(C)CNC(=S)NN=C(C)c1ccc(-n2ccnc2)cc1	0.676	3.5
Cc1ccc(OCC(=O)NN=Cc2ccc(O)c([N+](=O)[O-])c2)c([N+](=O)[O-])c1	0.693	4.2
CC(CC1CC(C)OC1=O)=NNC(N)=S (stereo not drawn)	0.678	0.5
COc1ccc(C=NNC(=O)c2cccs2)c2ccccc12	0.681	-26.6
O=C(CNC(=O)c1ccccc1Cl)NN=C/C=C/c1ccccc1	0.674	0.8
CCN(CC)c1ccc(C=NNC(=O)CC(C)C)cc1	0.679	-190.9
NC(N)=NN=Cc1ccc(OCc2ccccc2Cl)cc1	0.0445*	6.1
COc1ccc(O)c(C=NNC(=O)c2ccc(CSc3nc(C)cc(C)n3)cc2)c1	0.713	-0.3

Two neighbouring entries from above, for reference:
compound	E coli growth	UCH37 inh
NC(N)=NN=Cc1ccc(OCc2ccccc2Cl)cc1	0.0445*	6.1
COc1ccc(O)c(C=NNC(=O)c2ccc(CSc3nc(C)cc(C)n3)cc2)c1	0.713	-0.3

The list continues:
compound	E coli growth	UCH37 inh
Cc1cc2nc(N=C(N)NC(=O)N3c4ccccc4Sc4ccccc43)nc(C)c2cc1C	0.699	1.3
Cc1nnc(C)n1N=Cc1cccc(Oc2ccccc2)c1	0.699	1.5
COc1ccc(C(=O)NCC(=O)NN=Cc2c(C)[nH]c3ccccc23)cc1	0.654	6.6
CC(=NNC(=O)c1csc(C)c1C)c1ccc(Cl)s1	0.742	1.6
CC(=O)NCc1ccc(S(=O)(=O)NN=Cc2ccc(N(C)C)cc2)cc1	0.684	7.3
COc1ccc(NS(=O)(=O)c2ccc(NN=Cc3ccc(N4CCOCC4)cc3)c([N+](=O)[O-])c2)cc1	0.715	9.8
Cc1nc2ccccc2c(=O)n1N=Cc1cccnc1	0.689	3.2
Nc1n[nH]c(=S)n1N=C1C(=O)Nc2ccccc21	0.657	18.0
Cc1[nH]c2ccccc2c1C=NNC(=O)CNC(=O)c1ccccc1	0.698	6.3
COc1cc(OC)cc(C(=O)NN=C2SCC(=O)N2Cc2ccco2)c1	0.719	0.8
CCN(CC)C(=O)C1CCCN(c2ccc([N+](=O)[O-])cc2C=NNC(=O)c2ccccc2)C1 (stereo not drawn)	0.649	6.3
C/C(C=NNC(=O)Cc1cccn1C)=C\c1ccco1	0.649	8.8
Cc1cc(C)n(-c2nnc(C)n2N=Cc2ccccc2O)n1	0.677	-10.4
CC(=NOCC(=O)OCC(=O)N(C)c1ccccc1)c1ccc2c(c1)OCO2	0.701	2.0
COc1cc(C=NNc2nc(Nc3ccccc3)nc(-n3nc(C)cc3C)n2)cc(OC)c1OC	0.706	2.2
CCn1c2ccccc2c2cc(C=Nn3c(-c4cc(C)[nH]n4)n[nH]c3=S)ccc21	0.692	2.0
COC(=O)c1ccc(C=NNC(=O)c2ccccc2Cl)cc1	0.665	3.8
CON=Cc1ccc(Sc2ccc(C)cc2)c([N+](=O)[O-])c1	0.75	-5.9
Cc1ccc(C=NNc2ccc(Cl)nn2)cc1	0.71	2.5
COc1ccccc1C(=O)NN=C/C(C)=C/c1ccccc1	0.667	7.7
CCOc1ccc(C=NOCC(=O)Nc2cc(C)on2)cc1	0.648	1.5
CC(C)(C)C(=O)ON=C(N)c1ccc([N+](=O)[O-])s1	0.603	6.8
CC(Sc1ccccc1)C(=O)NN=Cc1ccccc1 (stereo not drawn)	0.633	5.5
Cc1c(N=Cc2ccco2)n(Cc2ccccc2)c2ccccc12	0.732	3.8
NC(=NOC(=O)C1CCCCC1)c1cccc([N+](=O)[O-])c1	0.683	1.0
FC(F)(F)c1ccc(Cl)c(NC(=S)NN=Cc2ccccc2Cl)c1	0.679	3.5
Cc1onc(-c2ccccc2Cl)c1C(=O)ON=C(N)c1ccc([N+](=O)[O-])o1	0.622	7.0
CCOc1ccccc1C=NNC(=O)CNC(=O)c1ccc(S(=O)(=O)N2CCOCC2)cc1	0.707	2.5
COc1ccc(C=NNc2nc3ccccc3o2)cc1O	0.661	3.7
O=[N+]([O-])c1cc2c(cc1C=Nn1cnnc1)OCO2	0.709	4.3

Profiles, looked up by structure. Values in the order: E coli growth | UCH37 inh
Shown for Cc1ccc(Cl)cc1-c1ccc(C=Nn2cnnc2)o1 = 0.691 | -73.5
Shown for O=C(NN=Cc1c[nH]c2ccccc12)c1cccc(Cl)c1 = 0.622 | -1.1
Shown for COc1ccc(CNC(=O)CC(C)=NNC(=O)COc2ccc(Br)cc2)cc1 = 0.701 | 5.0

Carrying on.
compound	E coli growth	UCH37 inh
COc1cc(OC)c(C=NNC(=O)c2ccc([N+](=O)[O-])cc2)cc1Br	0.715	1.4
CCOC(=O)C1=C(C)N=c2sc(=Cc3ccc(OCC(=O)O)c(OC)c3)c(=O)n2C1c1ccc(OC)cc1 (stereo not drawn)	0.675	6.6
COc1ccc(C=NNc2cc(N3CCCC3)nc(N3CCCC3)n2)cc1	0.622	-70.6
CC(=NNC(=O)C1CCN(S(=O)(=O)c2ccc(C)cc2)CC1)c1cccc([N+](=O)[O-])c1	0.702	3.7
O=C(O)c1ccc(NN=C/C=C/c2ccccc2)cc1	0.684	18.1
CC(CC(=O)Nc1ccc(N(C)C)cc1)=NNC(=O)c1ccc(C(C)(C)C)cc1	0.685	3.7
CC(=O)Nc1sc(NN=Cc2ccco2)nc1-c1cccs1	0.667	10.2
CCOc1cc(C=NO)cc(Br)c1OC	0.71	2.3
Cc1cc(C(=O)NN=Cc2cc(Br)ccc2OC(=O)c2ccccc2Cl)n[nH]1	0.749	0.7
C/C(C=NNc1nnc2c(n1)[nH]c1c(C)cccc12)=C\c1ccco1	0.706	5.9
CC(Cn1ncc(N2CCOCC2)c(Cl)c1=O)=NO	0.661	3.2
CN(C)c1ccc(C=NN=C2SC(CC(=O)O)C(=O)N2c2ccc(O)cc2)cc1 (stereo not drawn)	0.686	-243.0
N#Cc1cc([N+](=O)[O-])ccc1NC(=O)COC(=O)C12CC3CC(CC(C3)C1)C2	0.713	4.5
COc1ccc(CC(=O)ON=C(N)c2ccc(Br)cc2)cc1OC	0.699	0.4
Cc1ccc(C)c(NC(=S)NN=CC(C)c2ccccc2)c1 (stereo not drawn)	0.675	3.0

Looked up one by one from above (2):
compound	E coli growth	UCH37 inh
CC(Cn1ncc(N2CCOCC2)c(Cl)c1=O)=NO	0.661	3.2
O=C(O)c1ccc(NN=C/C=C/c2ccccc2)cc1	0.684	18.1

(next part)
compound	E coli growth	UCH37 inh
COc1cccc(C=NNC(=O)CNC(=O)c2cccs2)c1O	0.685	-0.9
O=C(NN=Cc1ccccc1O)c1ccc2c(c1)OCO2	0.66	-22.7
CC(=NNC(=O)c1ccc(NS(=O)(=O)c2cccs2)cc1)c1cccs1	0.674	10.8
Cc1ccc(C=Nn2cnnc2)s1	0.708	5.6
COc1cccc(C=NNC(=O)c2cccc3ccccc23)c1OC	0.711	-1.6
CC(C)c1ccc(C=NNc2cc(N3CCOCC3)nc(N3CCOCC3)n2)cc1	0.668	0.0
C/C(C=NNC(=O)c1nnn(-c2nonc2N)c1CN(C)C)=C\c1ccco1	0.63	10.6
CC(=NNS(=O)(=O)c1cccc([N+](=O)[O-])c1)c1cccnc1	0.704	-38.2
Cn1c(=O)c2c(nc(NN=Cc3ccncc3)n2Cc2ccccc2)n(C)c1=O	0.692	8.9
CCOc1ccc(C=NNC(=O)CSc2n[nH]c(=O)[nH]c2=O)cc1OC	0.718	3.6
CCOC(=O)C1=C(N)n2c(sc(=Cc3ccccc3)c2=O)=C(C(=O)OCC)C1c1ccccc1 (stereo not drawn)	0.729	6.4
Cc1cccc(C=NNC(=O)c2ccc(NC(=O)c3ccc(Cl)cc3)cc2)n1	0.632	5.1
COCc1cc(=O)[nH]c(N=C(N)Nc2ccc(C)cc2C)n1	0.686	1.0
CCn1c(SCC(=O)NN=C(C)c2ccncc2)nnc1-c1ccccc1	0.693	1.7
O=C(O)c1cc(-c2ccc(C=NNC(=S)Nc3ccccc3)o2)ccc1Cl	0.676	-18.8
O=C(NN=Cc1cccc2ccccc12)c1ccncc1	0.661	2.6

Screening results as filed in PubChem BioAssay.
